# High-throughput results deposited in PubChem by Vanderbilt University.
# GIRK2 act: activators of human GIRK2 potassium channels | G protein-activated inward rectifier potassium channel 2 (Homo sapiens), P48051 | calls only for hits at 25 µM | 63,000 tested, 0.05% active | HEK293-GIRK2 thallium flux, Thallos fluorescence;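 active = among the strongest 0.2% of first-round signals and kept after retests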;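 note: first round at about 10 µM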
# Target sequence (P48051 whole entry, looked up): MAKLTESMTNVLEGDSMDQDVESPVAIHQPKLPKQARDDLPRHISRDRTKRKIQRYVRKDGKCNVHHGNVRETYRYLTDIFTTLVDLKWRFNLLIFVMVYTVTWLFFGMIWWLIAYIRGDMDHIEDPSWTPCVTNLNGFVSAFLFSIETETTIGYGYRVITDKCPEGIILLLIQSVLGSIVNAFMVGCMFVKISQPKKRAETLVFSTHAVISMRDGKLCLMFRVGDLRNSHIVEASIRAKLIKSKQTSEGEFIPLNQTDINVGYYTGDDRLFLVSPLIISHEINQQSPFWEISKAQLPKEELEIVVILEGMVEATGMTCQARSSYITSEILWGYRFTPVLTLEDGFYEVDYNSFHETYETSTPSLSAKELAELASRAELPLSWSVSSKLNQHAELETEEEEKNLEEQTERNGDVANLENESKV
# Calls only; i = inactive.
Molecule	GIRK2 act
CCCCn1c(SCC(=O)NCc2ccco2)nc2c(-c3ccccc3)c[nH]c2c1=O	i
O=C(/C=C/c1ccc2c(c1)OCO2)N1CCC(Oc2ccc(C(F)(F)F)cn2)CC1	i
COc1ccc(Nc2cc(C(=O)N3CCSCC3)nc3ccccc23)cc1	i
COc1ccc(-n2c(C)c(C)n3c4c(=O)n(CCN5CCCCC5)c(=O)n(C)c4nc23)cc1	i
O=C(/C=C/c1ccsc1)N(CCc1cccs1)Cc1ccoc1	i
COCCNC(=O)Nc1ccc(C)c(N2CCCC2=O)c1	i
COc1ccc(C(=O)NC2CCN(C(=O)c3cn(-c4ccc(C)cc4)nn3)CC2)c(OC)c1	i
COc1cccc(-c2nc(Cn3nnc(C(=O)Nc4cccc(C)c4C)c3C)c(C)o2)c1OC	i
O=C(Nc1nc(CCC(=O)N2CCN(c3ccccc3)CC2)cs1)c1ccc(F)cc1	i
COCCN(CCOC)Cc1cc(=O)oc2cc(-c3ccccc3)c(O)cc12	i
O=C(/C=C/c1ccccc1)Nc1ccc(CC(=O)NC2CC2)cc1	i
CCCN1CCCc2cc(CCNC(=O)C(=O)Nc3cc(C)cc(C)c3)ccc21	i
CN(C)c1ccc(C(=O)Nc2nnc(-c3cccs3)o2)cc1	i
Cc1ccc(N2CCN(CC(=O)Nc3ccc(Br)cc3)CC2)c(C)c1	i
COCCCN1COc2ccc3c(=O)c(Oc4cccc(OC)c4)c(C(F)(F)F)oc3c2C1	i
CC1CC(C)CN(c2nccn3c(=O)n(CC(=O)Nc4cccc(Cl)c4)nc23)C1 (centres undefined)	i
CN(CC(=O)NCCc1cccs1)c1nc2c(F)cccc2s1	i
COc1cccc(CN2CCc3nc(SCC(=O)Nc4cc(OC)cc(OC)c4)[nH]c(=O)c3C2)c1	i
O=S(=O)(Cc1ccccc1)N(Cc1ccoc1)Cc1cccs1	i
O=C(NCc1ccco1)NC1(c2nc(C3CC3)no2)CCCCC1	i
Cc1noc(C2CN(CC(=O)N3CCc4ccccc43)C2)n1	i
Cc1ccc(NC(=O)C(=O)NCc2ccc3c(c2)OCO3)cc1F	i
O=C(Cc1ccccc1Cl)N1CCC(CSCc2ccco2)CC1	i
CCC1SC(CC)C(=O)N(CC(=O)Nc2ccc(F)cc2F)C1=O (centres undefined)	i
CC1(C)Cc2cccc(OCC(=O)N3CCC(Oc4ncccc4Cl)CC3)c2O1	i
Cc1ccc(C(C)C)c(OCC(O)CNC(C)C)c1 (centres undefined)	i
CCOC(=O)c1ccccc1NS(=O)(=O)c1cc2c3c(c1)CCC(=O)N3CCC2	i
O=C(NCCC(O)c1ccccc1)C(=O)Nc1ccc2c(c1)OCO2 (centres undefined)	i
COc1cccc(-n2c(=S)sc3c(=O)[nH]c(SCC(=O)Nc4ccc(C)c(C)c4)nc32)c1	i
O=C(C1=C(O)C(=O)N(c2nccs2)C1c1ccc(F)cc1)c1cc2ccccc2o1 (centres undefined)	i
CCCCCCNC(=O)c1c(N)n(/N=C\c2ccco2)c2nc3ccccc3nc12	i
CC(O)(CNC(=O)COc1ccc(Cl)cc1Cl)c1ccco1 (centres undefined)	i
O=C(COc1cccc2c1CCN(Cc1ccccc1)C2=O)NC1CCCCC1	i
CSc1ccccc1NC(=O)c1nnn(-c2nc3c(s2)CCCC3)c1C	i
CCOC(=O)c1cnc2ccc(OC)cc2c1N	i
COc1ccc(CNC(=O)c2ccc(-n3ccc(C)n3)nc2)cc1	i
O=C(/C=C/c1ccccc1)N1CCOC(c2ccccc2)C1 (centres undefined)	i
O=C(/C=C/c1ccccc1)NCC#CCN1CCOCC1	i
CC(=O)c1cccc(NS(=O)(=O)c2ccc(F)c(Cl)c2)c1	i
CCOc1ccccc1-c1nc(Cn2nnc(C(=O)Nc3cccc(OC)c3)c2N)c(C)o1	i
CCOc1ccc(C=Nc2c(C)n(C)n(-c3ccccc3)c2=O)c(OCC)c1	i
COc1ccc(-c2cc3nc(C)cc(N4CCCCCC4)n3n2)cc1OC	i
COc1ccc(S(=O)(=O)NC(C)C)c(C)c1C	i
O=C(Nc1ccccc1)OC1CCCC(NC(=O)c2cccc(C(F)(F)F)c2)C1 (centres undefined)	i
Cc1ccc(-n2c(C)cn3c4c(=O)n(CC(N)=O)c(=O)n(C)c4nc23)cc1C	i
Cc1cc(C)cc(NC(=O)C(=O)NCCN2CCN(c3ccc(F)cc3)CC2)c1	i
COc1ccc(Cc2nnc(C3CCN(CC(=O)Nc4cccc(F)c4)CC3)s2)cc1	i
Cc1cc(O)c(Cc2c(O)cc(C)c(C=O)c2O)c(O)c1C	i
O=C(c1csc(Nc2ccc(OC(F)F)cc2)n1)N1CCN(C(=O)c2ccco2)CC1	i
CCCn1cc(C(=O)Nc2ccc(OC)c(OC)c2)c(=O)c2ccc(C)nc21	i

# The list goes on:
Molecule	GIRK2 act
COc1ccc(S(=O)(=O)Nc2cnc(Oc3ccccc3F)nc2)c(OC)c1OC	i
CCOc1ccc2nc(NC(=O)C3CCN(c4ccc(-n5nc(C)cc5C)nn4)CC3)sc2c1	i
Cc1ccccc1C(=O)Nc1ccccc1NC(=O)Nc1ccccc1C#N	i
COc1ccccc1OCC#CCNC(=O)CSc1ccc(F)cc1	i
CC(=O)Cn1c(=O)c2c(nc3n(-c4ccc(Br)cc4)c(C)cn23)n(C)c1=O	i
COc1ccc(-c2cn[nH]c2-c2ccc(OCCN3CCC(C(N)=O)CC3)cc2O)cc1	i
CCOC(=O)CSc1nccn2nc(-c3ccc(C)cc3C)cc12	i
COc1ccc(OC)c(NC(=O)c2cc(-c3ccncc3)nc3ccccc23)c1	i
NS(=O)(=O)c1ccc(NC2SC(=O)N(c3cccc(C(F)(F)F)c3)C2=O)cc1 (centres undefined)	i
COCCN(Cc1ccncc1)S(=O)(=O)Cc1ccc(F)cc1	i
O=C(CCc1nc2sc3c(c2c(=O)[nH]1)CCCCC3)N1CCN(C(=O)c2ccco2)CC1	i
COc1ccc(-c2nc3c(c(=O)c4ccccc4n3C)c(=O)n2Cc2ccco2)cc1	i
CCc1nc2sc(C(c3cccc(F)c3)N3CCCCC3)c(O)n2n1 (centres undefined)	i
O=C(CCc1ccccc1)Nc1ccc(S(=O)(=O)N2CCN(c3cnccn3)CC2)cc1	i
Cc1nc(C)c(C(=O)C2=C(O)C(=O)N(CCCn3ccnc3)C2c2ccccc2)s1 (centres undefined)	i
CC1CCCCN1C(=O)c1nnn(-c2ccccc2Cl)c1-c1ccccn1 (centres undefined)	i
O=C(Nc1nccs1)C1CCN(C(=O)NCc2ccccc2)CC1	i
CCOC(=O)Cn1c(=O)c2c(nc3n(CCN4CCOCC4)c(C)cn23)n(C)c1=O	i
Cc1cc(NC(=O)CSc2nnc(N3CCN(C(=O)c4ccccc4)CC3)s2)no1	i
Cc1cc(C)c(C)c(S(=O)(=O)NCC2(c3cccs3)CCOCC2)c1C	i
O=C(CN1CCCCCC1)Nc1ccc(S(=O)(=O)Nc2nccs2)cc1	i
CN(C(=O)Cn1nc(-c2cccs2)c2sc(N3CCCCC3)nc2c1=O)c1ccccc1	i
CC(=O)N1CCN(Cc2nc(-c3ccc(F)cc3)cs2)CC1	i
Cc1nn(C)cc1C(=O)NCCC1=CCCCC1	i
O=C(NCc1ccc(F)cc1)Nc1cc(N2CCN(c3ccccc3)CC2)ncn1	i
O=C1CC(NC(=O)CCC(=O)c2ccc(Cl)cc2)CN1 (centres undefined)	i
Cc1cc(C)c2c(n1)sc1c(=O)n(CC(=O)Nc3cccc4ccccc34)cnc12	i
Cc1cc(CCNC(=O)c2ccc(Br)o2)on1	i
CC(C(=O)N1CCN(c2cccc(C(F)(F)F)c2)CC1)n1nc(-n2cccn2)ccc1=O (centres undefined)	i
Cc1cc2oc3c(c(=O)c2cc1C)C(c1ccccc1)N(CCCN(C)C)C3=O (centres undefined)	i
C/C=C/CN1CCn2c1nc1c2c(=O)n(C/C=C/C)c(=O)n1C	i
O=C(Nc1ccc(F)cc1)c1sccc1S(=O)(=O)N1CCN(c2ccccc2Cl)CC1	i
CN1CCN(C(=O)c2cc(-c3cccs3)n(CC(=O)N3CCC(O)CC3)n2)CC1	i
Cc1c(C)n2c3c(=O)n(CCN4CCCCC4)c(=O)n(C)c3nc2n1Cc1ccco1	i
COc1cccc2sc(N(C)CC(=O)N3CCn4c3nc3ccccc34)nc12	i
COc1c(O)ccc2c(=O)c3c(O)c([C@@H]4O[C@H](CO)[C@@H](O)[C@H](O)[C@H]4O)c(O)cc3oc12	i
COc1cc(C(=O)Nc2cc(-c3cccs3)nn2-c2nc(C)cc(=O)[nH]2)cc(OC)c1OC	i
CCOC=Nc1c(C(N)=O)nnn1Cc1ccccc1Cl	i
Cc1nc(C)c(CNS(=O)(=O)c2ccc(Cl)s2)s1	i
O=C(NCC1CCN(C(=O)c2ccncc2)CC1)c1cccs1	i
Cc1cc(C(=O)NCC2CCN(Cc3cccs3)CC2)c(C)o1	i
N#Cc1cccc(C(=O)NCC2(CO)CC2)c1	i
COc1ccc(CCNC(=O)C(=O)c2cn(CC(=O)N3CCOCC3)c3ccccc23)cc1OC	i
Cc1cc(OCC(=O)Nc2ccc3c(c2)OCO3)nc(N2CCN(c3ccccc3)CC2)n1	i
COc1cccc(C(CNS(=O)(=O)c2ccc(F)cc2F)N2CCOCC2)c1 (centres undefined)	i
O=C(c1nccnc1-c1nc2ccccc2s1)N1CCN(c2cccc(Cl)c2)CC1	i
Cc1csc(SCC2CCN(C(=O)NCc3ccc(Cl)cc3)CC2)n1	i
Cc1ccc(NC(=O)CSc2nccn2-c2cccc(C(=O)NCc3ccc(C)o3)c2)c(Cl)c1	i
CC(Cc1ccco1)NC(=O)/C=C/c1ccc2c(c1)OCO2 (centres undefined)	i
COc1ccc(CN2C(=O)C(O)(CC(C)=O)c3cc(C)ccc32)cc1 (centres undefined)	i

# Arranged by length of the SMILES (descending): part of the list above.
Molecule	GIRK2 act
Cc1ccc(NC(=O)CSc2nccn2-c2cccc(C(=O)NCc3ccc(C)o3)c2)c(Cl)c1	i
Cc1cc(OCC(=O)Nc2ccc3c(c2)OCO3)nc(N2CCN(c3ccccc3)CC2)n1	i
O=C(c1nccnc1-c1nc2ccccc2s1)N1CCN(c2cccc(Cl)c2)CC1	i
COc1cccc(C(CNS(=O)(=O)c2ccc(F)cc2F)N2CCOCC2)c1 (centres undefined)	i
COc1ccc(CN2C(=O)C(O)(CC(C)=O)c3cc(C)ccc32)cc1 (centres undefined)	i
Cc1csc(SCC2CCN(C(=O)NCc3ccc(Cl)cc3)CC2)n1	i
CC(Cc1ccco1)NC(=O)/C=C/c1ccc2c(c1)OCO2 (centres undefined)	i

# Further results.
Molecule	GIRK2 act
COc1ccc(CCN2CC(O)=C(c3nc4ccccc4[nH]3)C2=N)cc1	i
CC(=O)Nc1c(-c2ccccn2)nsc1C(=O)NCc1cccc(Cl)c1	i
O=c1c2nc(N3CCCC3)sc2c(-c2ccccc2)nn1CCc1ccccc1	i
N#Cc1cccc(C(=O)NCc2nn(CCN3CCCC3)c(=O)c3ccccc23)c1	i
Cc1cc(C)n(-c2nc(CCNC(=O)Nc3ccccc3F)cs2)n1	i
CCOCCn1c(-n2nc(C)c(C)c2C)nc2c1c(=O)n(Cc1ccccc1)c(=O)n2C	i
COc1cccc(OCC(=O)NC2CCCC(OC(=O)Nc3ccccc3)C2)c1 (centres undefined)	i
O=C(NCc1ccncc1)C(=O)NC1CC1	i
COc1cccc(C(=O)N2CCN(c3oc(-c4cccc(Cl)c4)nc3C#N)CC2)c1	i
COc1ccccc1OCC(=O)NCC1CCN(C(=O)Oc2ccccc2)CC1	i
COc1ccc(S(=O)(=O)NCc2ccccc2)cc1N(C)S(=O)(=O)c1ccc(C)cc1	i
O=C(Nc1nc2c(s1)CCCC2)C1CCN(c2ccc(-n3cccn3)nn2)CC1	i
CCC(CO)NC(=O)C(=O)NCCc1ccccc1 (centres undefined)	i
COc1cccc(N2CCN(c3ccc(S(=O)(=O)c4ccc(Cl)cc4)nn3)CC2)c1	i
COc1cc(C(=O)Nc2ccc3c(=O)c4cccc(F)c4oc3c2)cc(OC)c1OC	i
Cc1cc(NC(=O)c2ccco2)n(-c2nc3ccc(F)cc3s2)n1	i
CS(=O)(=O)N1CCC(C(=O)NCC2CCN(Cc3cccs3)CC2)CC1	i
Cc1ccc(-c2noc(-c3cn(CC(=O)NC4CCCC4)c4nc(C)ccc4c3=O)n2)cc1	i
CC(C)NC(=O)Nc1cc(N2CCN(c3ccccc3)CC2)ncn1	i
C=C1CCC2[C@](C)(CCC[C@@]2(C)C=O)[C@H]1CC/C(C)=C/CO (some centres undefined)	i

# A different layout for 3 compounds above:
GIRK2 act	molecule
i	CCOC(=O)c1ccccc1NS(=O)(=O)c1cc2c3c(c1)CCC(=O)N3CCC2
i	O=C(NCCC(O)c1ccccc1)C(=O)Nc1ccc2c(c1)OCO2 (centres undefined)
i	COc1cccc(-n2c(=S)sc3c(=O)[nH]c(SCC(=O)Nc4ccc(C)c(C)c4)nc32)c1

# Further results follow.
Molecule	GIRK2 act
Cn1nc(C2CCN(C(=O)/C=C/c3ccco3)CC2)n(-c2ccccc2)c1=O	i
CCOc1ccccc1NC(=O)CSc1ccc(-c2nc(C)no2)cn1	i
COc1ccc(C)cc1NC(=O)Cn1nc2c(Oc3cc(C)cc(C)c3)nccn2c1=O	i
Cc1cc(-c2nnc(NC(=O)/C=C/c3ccco3)o2)c(C)o1	i
Cc1cc(C)c(NC(=O)COc2cc(C)nc(-c3ccc(C(F)(F)F)cc3)n2)c(C)c1	i
Cc1cc(N2C(=O)C(=O)C(=C(O)c3ccccc3)C2c2ccc([N+](=O)[O-])cc2)no1 (centres undefined)	i
Cc1ccc(-n2cc(C(=O)N3CCC(NC(=O)c4cccc(N(C)C)c4)CC3)nn2)cc1	i

# Only part of the results is shown; count on the stated rates, not on these rows.
